UCH37 inh: inhibitors of human UCH37 deubiquitinase, primary screen, biochemical, Ub-AMC cleavage, fluorescence; Ubiquitin carboxyl-terminal hydrolase isozyme L5 (Homo sapiens), Q9Y5K5; inhibition, % (concentration not given with the values); purified proteasome/UCH37; 330,000 compounds, 0.33% hits;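 active = mean of two replicates above 20%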;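 note: 0% = compound-free wells with enzyme and 100% = wells lacking proteasome; stock transfer was 100 nL into about 20 µL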
Target sequence (Q9Y5K5 whole entry, looked up): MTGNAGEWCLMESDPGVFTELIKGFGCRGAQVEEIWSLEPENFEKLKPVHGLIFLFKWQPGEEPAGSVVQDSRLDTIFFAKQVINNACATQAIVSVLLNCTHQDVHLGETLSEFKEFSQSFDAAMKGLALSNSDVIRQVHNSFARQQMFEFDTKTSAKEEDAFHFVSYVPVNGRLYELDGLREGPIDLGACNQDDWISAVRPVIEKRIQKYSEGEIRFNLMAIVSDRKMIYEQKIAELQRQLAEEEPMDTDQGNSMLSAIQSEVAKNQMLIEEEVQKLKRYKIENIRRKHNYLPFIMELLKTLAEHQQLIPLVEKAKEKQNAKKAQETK
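Material: human UCH37 enzyme supplied as purified proteasome complex / Amount: 0.15 nM proteasome as dispensed / Buffer or medium: pH 7.4 Tris-HCl (50 mM) with ovalbumin, ATP-MgCl2, DTT / Times: preincubation 30 min, reaction 25 min, room temperature / Technique: AMC fluorescence from Ub-AMC cleavage, excitation 355 nm, emission 460 nm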
A1 inh: caspase 3/7 activation in MEF A1-2A-BIM cells, primary screen, A1 inhibitor project, cell-based, luminescence, HTS | Caspase-Glo 3/7 luminescence, 3 h; percent of clofoctol response, vehicle zero | caspase activation, % (test concentration not listed) | 330,000 compounds, 0.066% hits | AID 2462, 2010;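 active = over half of replicate activation scores above 10%, or exactly half above 10 with the replicate mean above 10; inconclusive = replicate mean below 10 yet half the replicates above 10; inactive = over half of replicates below 10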;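 note: wells of about 30 µL received 50 nL stock; many hits fall short of the cut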
T cruzi inh: inhibitors of intracellular T. cruzi growth, primary screen, luminescence, NIH3T3 host cells; T. cruzi beta-gal in NIH3T3, 90 h; inhibition, % (test concentration not listed); 300,000 compounds, 1.4% hits; AID 1885, 2009;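 active = mean inhibition across valid replicates above about 55%, limit read from the data; inconclusive = mean below that limit but half or more replicates reach it; inactive = mean below it, under half of replicates reach it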;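 note: signal also drops with host cell toxicity which is not excluded here; 0% = plate median of DMSO wells and 100% = zero luminescence signal; higher percent means less beta-gal luminescence so fewer parasites; stock transfer was 50 nL into about 50 µL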
AF4-AF9 inh: inhibitors of AF4 peptide binding to AF9, primary screen, biochemical, AlphaScreen, biotin-AF4 peptide, FLAG-AF9, single point; Protein AF-9 (Homo sapiens), P42568; inhibition, % at 10 µM; 350,000 compounds, 0.47% hits;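 active = every replicate reaching a set inhibition limit, whatever the replicate mean, cut at about 25% in these data; inconclusive = mean inhibition reaches that limit but some replicates miss it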;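 note: 0% = plate neutral control median and 100% = total signal loss; the record names both 10 and 1 µM as test concentration; the first replicate is given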
Target sequence (P42568 whole entry, looked up): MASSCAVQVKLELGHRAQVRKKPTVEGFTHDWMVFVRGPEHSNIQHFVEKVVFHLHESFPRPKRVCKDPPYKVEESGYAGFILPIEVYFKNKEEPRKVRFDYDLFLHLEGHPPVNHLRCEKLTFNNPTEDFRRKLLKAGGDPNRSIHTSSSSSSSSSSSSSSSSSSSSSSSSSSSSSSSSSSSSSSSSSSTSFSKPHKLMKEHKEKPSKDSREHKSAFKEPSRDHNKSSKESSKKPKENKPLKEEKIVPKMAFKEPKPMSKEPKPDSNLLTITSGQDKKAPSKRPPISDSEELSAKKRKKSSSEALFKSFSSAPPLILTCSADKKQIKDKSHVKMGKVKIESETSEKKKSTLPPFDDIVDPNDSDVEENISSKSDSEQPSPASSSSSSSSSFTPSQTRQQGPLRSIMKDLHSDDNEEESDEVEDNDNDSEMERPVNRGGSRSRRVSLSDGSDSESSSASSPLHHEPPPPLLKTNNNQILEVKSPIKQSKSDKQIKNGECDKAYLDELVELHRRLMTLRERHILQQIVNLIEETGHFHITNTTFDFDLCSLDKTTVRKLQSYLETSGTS
rRNA inh HTS: reduced GFP signal of wild-type E. coli, primary screen, bacterial rRNA inhibitor project, GFP/RFP fluorescence, OD600, single point. E. coli WT GFP vs humanized-ribosome RFP mutants, 24 h; stronger effect = lower value; DMSO median 0, no signal -100. GFP signal change (wild-type ribosome), % (no concentration beside the values). 350,000 compounds, 1.6% hits;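 active = significant combined selectivity score with lowered wild-type GFP, culture density cut under 30%, mutant RFP and density less affected; inactive = any of these conditions unmet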; note: one replicate is shown; some compounds called inactive have numbers as strong as hits
FGF22 binding: binders of human FGF22 protein, primary screen, FGF22 synaptogenesis inhibitor project, biophysical, thermal shift, single point; 340,000 compounds, 1.5% hits; recombinant FGF22 thermal shift, SYPRO orange fluorescence; percent of sucrose octasulfate shift, DMSO zero; AID 651658, 2012; calls only at 9.99 µM;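 active = melting point raised past a set limit in the mean and every replicate; inconclusive = no clear call; three in four hits are not shown here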
Target sequence (Q9HCT0 whole entry, looked up): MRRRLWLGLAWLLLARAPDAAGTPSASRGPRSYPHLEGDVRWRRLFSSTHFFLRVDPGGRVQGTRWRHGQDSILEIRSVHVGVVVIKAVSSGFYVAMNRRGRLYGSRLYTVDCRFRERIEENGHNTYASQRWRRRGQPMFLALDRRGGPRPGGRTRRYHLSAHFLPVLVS
E coli growth: E. coli growth inhibition, primary screen, OD600. Escherichia coli growth, 23 h; stronger effect = lower value. OD600 absorbance (no concentration beside the values). 330,000 compounds, 0.21% hits;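 active = OD600 absorbance below the run mean of sample wells minus 3.6 SD, in any replicate, cut at about 0.56 in these data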;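 note: stock transfer was 300 nL into about 60 µL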
Beta cell apopt: inhibitors of cytokine-induced beta cell apoptosis, primary screen, luminescence; 300,000 compounds, 0.8% hits; protection from apoptosis, % (test concentration not listed); INS-1E cytokine-induced death, ATP luminescence, 48 h; percent of positive-control rescue, neutral wells zero; AID 435005, 2010;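 active = all replicates at 75% or more, or half of them and the mean; inconclusive = half reach 75% but not the mean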;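 note: 0% = cytokine-treated negative control wells and 100% = positive control rescue; higher means more ATP so stronger rescue from cytokine killing; wells of about 40 µL received 100 nL stock; the first replicate is given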
rRNA inh HTS OD600: second read-out of rRNA inh HTS, no call of its own (marks repeat the call); OD600 change, %; measured here: OD600 growth;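 optical density of the mix in the first replicate; 0 = DMSO median and -100 = no signal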
rRNA inh HTS RFP: further read-out of rRNA inh HTS, marked with its call; RFP signal change, %; measured here: RFP humanized mutant strains;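 first replicate; 0 = DMSO median and -100 = no signal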
* marks the source's active call; other numbers are inactive results; i = inactive; ? = inconclusive; / = not tested or not shown.

SMILES	UCH37 inh	A1 inh	T cruzi inh	AF4-AF9 inh	rRNA inh HTS	rRNA inh HTS OD600	rRNA inh HTS RFP	FGF22 binding	E coli growth	Beta cell apopt
COc1cccc(N2CCN(C(=O)CCCCCn3c(=S)[nH]c4cc5c(cc4c3=O)OCO5)CC2)c1	1.7	1.5	19.3	-15.4	15.6	18.1	1.8	i	0.696	22.7
Cc1ccc2[nH]cc(/C=C/c3cc[n+](C)cc3)c2c1	/	0.4	58.8*	-0.7	58.6	7.2	30.5	i	/	120.8*
Cc1ccccc1N1CCN(C2CCCN(C(=O)CCN3CCCO3)C2)CC1 (stereo not given)	1.9	0.8	-11.1	3.6	20.8	18.1	5.7	i	0.738	-2.9
CC(=O)C1=C(C)NC(=O)NC1/C=C/c1ccccc1 (stereo not given)	3.8	0.6	-3.6	-1.0	20.6	18.5	2.0	i	0.644	0.7
Cc1c(NC(=O)c2ccc(CN3CCc4ccccc4C3)cc2)c(=O)n(-c2ccccc2)n1C	4.0	1.0	-3.0	/	/	/	/	/	0.696	-5.4
CC(C)CC(C(=O)Nc1oc(-c2ccco2)c(-c2ccco2)c1C#N)N1C(=O)c2ccccc2C1=O (stereo not given)	3.9	0.9	-2.5	/	/	/	/	/	0.74	2.3
O=C(O)c1ccc(N2C(=O)CC(SC(=NCc3ccc4c(c3)OCO4)Nc3ccc(F)cc3)C2=O)cc1 (stereo not given)	-0.9	0.1	0.1	0.3	2.1	1.3	-0.7	/	0.673	-6.2
CCn1c(SCC(=O)Nc2ccccc2C(=O)OC)nnc1-c1ccoc1C	5.4	0.4	2.0	/	/	/	/	/	0.714	-3.1
COc1cccc(CNC(=O)CCC2CCCN(C(=O)Cc3ccccc3F)C2)c1 (stereo not given)	0.6	-0.9	11.3	0.6	-4.7	-7.0	4.4	i	0.685	-2.9
O=C(CN1C(=O)C2CC=CCC2C1=O)Nc1nnc(C2CC2)s1 (stereo not given)	1.1	1.2	/	-0.9	8.0	7.6	3.4	i	0.697	-0.8
CCn1cc(C(=O)NC(C)C)c(=O)c2cc(F)c(N3CCN(C(=O)c4ccco4)CC3)cc21	-135.9	-0.5	5.6	0.5	-57.0	-80.3	-18.5	i	0.087*	12.0
COc1ccccc1CN1CC(C(=O)NCc2ccc(N3CCCC3=O)cc2)CCC1=O (stereo not given)	1.6	/	-14.0	-6.8	8.7	9.2	1.2	i	0.723	/
Cc1ccc(C(c2c(O)nc3n(c2=O)CCS3)c2c(O)nc3n(c2=O)CCS3)cc1	1.0	0.9	-14.0	-3.6	/	/	/	i	0.666	-1.9
Cc1cc(C(=O)Nc2ccc(Cl)cc2)n(-c2ccccc2)n1	2.6	-0.4	0.7	-2.3	-1.7	-6.9	-1.1	i	0.685	1.1
CN(C)c1cccc(C(=O)NCCCSc2ccccc2)c1	-34.8	-0.3	-3.1	0.0	-8.4	-19.4	4.4	i	0.677	-8.4

Part of the list above, limited to AF4-AF9 inh and A1 inh.
SMILES	AF4-AF9 inh	A1 inh
CC(C)CC(C(=O)Nc1oc(-c2ccco2)c(-c2ccco2)c1C#N)N1C(=O)c2ccccc2C1=O (stereo not given)	/	0.9
O=C(O)c1ccc(N2C(=O)CC(SC(=NCc3ccc4c(c3)OCO4)Nc3ccc(F)cc3)C2=O)cc1 (stereo not given)	0.3	0.1
CCn1c(SCC(=O)Nc2ccccc2C(=O)OC)nnc1-c1ccoc1C	/	0.4
COc1cccc(CNC(=O)CCC2CCCN(C(=O)Cc3ccccc3F)C2)c1 (stereo not given)	0.6	-0.9

Back to the main list; the two compounds before the break are reprinted first.
SMILES	UCH37 inh	A1 inh	T cruzi inh	AF4-AF9 inh	rRNA inh HTS	rRNA inh HTS OD600	rRNA inh HTS RFP	FGF22 binding	E coli growth	Beta cell apopt
Cc1cc(C(=O)Nc2ccc(Cl)cc2)n(-c2ccccc2)n1	2.6	-0.4	0.7	-2.3	-1.7	-6.9	-1.1	i	0.685	1.1
CN(C)c1cccc(C(=O)NCCCSc2ccccc2)c1	-34.8	-0.3	-3.1	0.0	-8.4	-19.4	4.4	i	0.677	-8.4
Cc1sc2ncnc(NCC(O)c3ccc([N+](=O)[O-])cc3)c2c1C (stereo not given)	4.0	0.8	25.9	-3.0	-7.6	-4.4	-1.3	i	0.631	79.2*
Cc1ccc(NS(=O)(=O)c2ccc(C)c(NC(=O)COc3ccc4ccccc4c3)c2)c(C)c1	-0.6	-0.3	30.6	0.3	-16.0	-34.9	13.5	i	0.711	9.2
CCCn1c(CNc2ccc(Br)cc2)nc2ccccc21	1.3	-0.3	50.2	0.5	1.0	-7.6	0.3	i	0.758	6.8
COC(=O)c1c(NC(=O)Cc2cccs2)sc2c1CCC(C)C2 (stereo not given)	-2.0	0.1	21.7	/	/	/	/	/	0.697	-0.3
CCOc1ccc(NC(=O)c2ccc(NC(=O)c3ccc(NC(N)=O)cc3)cc2)cc1	5.1	0.0	/	-2.4	1.9	10.2	-1.7	i	0.694	-4.3
CC1CN(CCOc2cccc(Oc3ccccc3)c2)CC(C)O1 (stereo not given)	2.9	0.5	-3.5	2.5	-11.2	-7.9	-2.7	i	0.72	/
Cc1ccc(-c2[nH]c(-c3ccc(Cl)cc3)nc2SCC(=O)NCC2CCCO2)cc1 (stereo not given)	-10.8	0.0	13.8	3.3	4.6	9.6	-0.2	i	0.801	20.4
C[n+]1ccccc1/C=C/c1ccc(C#N)cc1	3.9	-0.2	-14.8	-3.9	11.0	13.1	-1.8	i	0.718	-5.3
COc1ccccc1NC(=O)CNC(=O)c1ccc([N+](=O)[O-])cc1	2.3	-0.5	5.1	-2.3	11.1	8.8	-1.5	i	0.674	-1.4
CCn1c(SC(C)C(=O)OC)nnc1-c1c[nH]c2ccccc12 (stereo not given)	2.4	0.1	-10.0	-27.2	-8.7	-2.4	-4.3	i	0.683	-9.6
COc1ccc(OC)c(S(=O)(=O)NCCc2ccccc2)c1	-0.8	-0.7	8.1	1.0	-2.9	-2.7	-1.9	i	0.661	-10.5
CCN(CC)CCNC(=O)c1cn(C)c2ccc(S(=O)(=O)N(C)C3CCCCC3)cc2c1=O	-1.0	1.9	-10.5	-1.7	5.3	9.2	1.5	i	0.749	-3.1
O=S(=O)(c1cccs1)N1CN(C2CCCCC2)c2nc3ccccc3nc21	-6.7	?	27.2	4.1	-12.8	-10.9	5.3	i	0.693	2.7
COc1ccc(CN(C(=O)Cn2nnc3ccccc32)C(C(=O)NC(C)(C)C)c2ccco2)cc1 (stereo not given)	4.3	-0.2	-18.1	/	/	/	/	/	0.711	-1.6
O=C(CCN=C1NS(=O)(=O)c2ccccc21)Nc1ccc(F)cc1Cl	3.7	0.2	/	-2.4	3.6	3.0	0.3	i	0.699	4.0
CCCCn1c(N)c(N(CCC(C)C)C(=O)c2ccc(C)o2)c(=O)[nH]c1=O	1.1	-0.8	/	-1.3	/	/	/	i	0.661	-1.8
CC(C)c1csc(CN2CCC(N3CCC(C(=O)N4CCOCC4)CC3)CC2)n1	0.6	0.4	7.2	-3.3	6.9	5.3	-4.6	i	0.637	-23.3
O=C(CC(=O)Nc1cccc(Cl)c1Cl)Nc1cccc(Cl)c1Cl	0.7	0.5	21.2	-0.8	-6.2	5.8	-3.8	i	0.69	-2.3
O=C(N=Nc1c(O)[nH]c2ccccc12)c1cc(-c2ccc(F)cc2)n[nH]1	5.4	-0.6	6.6	-1.6	10.4	24.1	3.4	i	0.747	3.4
CCC(C)(C)C1CCC2(CC1)NC(=O)N(CC(=O)NCCCc1ccccc1)C2=O (stereo not given)	3.9	0.0	/	1.3	1.4	4.7	0.3	i	0.71	9.0
O=C(CN1CC[n+]2c(-c3cccs3)csc21)c1ccc(-c2ccccc2)cc1	8.5	-0.9	3.5	23.0	-41.0*	29.8*	-8.8*	i	0.581	110.6*
Cc1ccc(S(=O)(=O)c2ccc(Oc3ccccc3)cc2)cc1	5.7	0.6	13.3	/	/	/	/	/	0.735	-0.4
Fc1ccccc1-c1csc(-c2cccnc2)n1	-1.3	-1.7	-8.6	0.6	-11.7	-19.1	0.0	i	0.683	5.4
N#Cc1nc(COc2ccccc2)oc1N1CCCCC1	-0.4	0.1	14.9	22.7	-8.5	-6.8	-4.8	i	0.746	-4.8
COc1ccc(C)cc1NC(=O)Nc1ccc(Br)cn1	0.1	0.8	-6.8	/	/	/	/	/	0.755	-8.6
N#C/C(=C\c1cccc(OC(=O)c2cccs2)c1)C(N)=O	2.0	0.1	-6.7	/	/	/	/	/	0.654	-9.9
CCCCNC(=O)c1cccnc1SCC(=O)Nc1ccccc1OC	2.7	0.5	-1.3	/	/	/	/	/	0.696	1.6
O=C(CCN1C(=O)C2CCCCC2C1=O)Nc1ccc(F)c(F)c1F (stereo not given)	5.2	0.2	2.0	-1.0	3.3	4.7	-0.1	i	0.711	-0.7
O=c1c2ccccc2c(C=NCCCN2CCOCC2)c(O)n1Cc1ccccc1	5.0	0.1	12.6	/	/	/	/	/	0.712	2.8
Cc1ccc(C2C(C#N)C(C#N)N3CCCN23)cc1 (stereo not given)	1.7	-0.2	-8.5	/	/	/	/	/	0.745	1.4
C=CCc1cccc2cc(C(=O)NC3=C(C#N)CCC3)c(=O)oc12	5.0	1.5	-8.2	/	/	/	/	/	0.704	-1.8
Cc1cccc(NS(=O)(=O)c2cccc(C(=O)NCC(C)(C)N3CCOCC3)c2)c1	1.8	-0.1	2.0	-0.5	0.1	2.3	0.6	i	0.651	-1.9
[N-]=[N+]=NC[C@H](c1ccccc1)N1CCN(Cc2ccccc2)CCC1=O	-0.1	-0.4	0.2	3.3	7.5	4.1	-4.5	i	/	3.9
CCC(C)(NC=O)C(=O)Nc1c(C)cccc1C (stereo not given)	2.1	-0.2	-6.3	-0.1	4.0	5.7	-0.5	i	0.616	-4.9
O=C1N/C(=N\N=C\c2ccco2)SC1Cc1ccccc1[N+](=O)[O-] (stereo not given)	/	-0.5	2.8	-1.6	2.8	12.1	0.1	i	/	3.5
Cc1ccc(C)c(CN2CCC(CNC(=O)Nc3ccc(C)c(C)c3)CC2)c1	/	1.1	19.1	5.1	9.1	-4.4	16.7	i	/	-1.0
O=C(Cc1cccs1)NCc1ccc(Cl)cc1	0.7	1.4	-31.6	5.9	3.8	-0.4	1.8	i	0.715	/
Cc1noc(C)c1CSCC(=O)Nc1cc(S(C)(=O)=O)ccc1Cl	3.3	0.7	7.3	-0.4	-1.5	1.9	-1.7	i	0.683	-1.8
CNC(=O)Cn1nc(-c2ccc(C)cc2)c2ccccc2c1=O	/	0.0	-4.1	0.0	1.2	5.5	-4.5	i	/	-1.1
Cn1c(=O)n(CCOc2ccc(Cl)cc2Cl)c2ccccc21	1.4	-0.7	0.6	/	/	/	/	/	0.658	8.7

Screening data (PubChem BioAssay)

An excerpt; count on the stated rates, not on these rows.
